H5N1 antiviral = MDCK cell protection from H5N1 avian flu. cytopathic effect, luminescence, 72 h; stronger effect = higher value; no value below 0 was filed and about half of the inactive calls have no number; reference of the scale not given here. inhibition, % at 50 µM. 0.07% of 96,000 active; in the data active = inhibition above about 25%
Starred values were filed as active, the others as inactive. The list is partial (hit frequency here may not be typical).

For COCCn1nnnc1CN1CCOCC1 the results were H5N1 antiviral inactive.
For Cc1cccnc1NC(=S)NC(=O)c1cncc(Br)c1 the results were H5N1 antiviral inactive.
For Cc1cccc(C(CC(=O)N2CCCC2)c2ccccc2)c1O (stereo not drawn) the results were H5N1 antiviral inactive.
For O=C(NCc1cccnc1)c1ccc(S(=O)(=O)N2CCCCC2)cc1 the results were H5N1 antiviral 0.7.
Cc1ccc(C(=O)Nc2cnc3ccccc3c2)cc1 was read as H5N1 antiviral inactive.
For CCOC(=O)N1CC=C2C(C#N)=C(N)C(C#N)(C#N)[C@H](c3cccs3)[C@H]2C1 the results were H5N1 antiviral 0.2.
`CN(C)c1ccc(CN2CCCC(O)C2)cc1` (stereo not drawn) gave H5N1 antiviral inactive.
Screening OCCNCC(O)Cn1ccc2ccccc21 (stereo not drawn) returned H5N1 antiviral 0.4.
Screening COc1cccc(N2CCN(c3c(C#N)c(C(F)(F)F)nn3C)CC2)c1 returned H5N1 antiviral 0.5.
Screening CC(=O)Nc1ccc(S(=O)(=O)NCc2ccc(C(=O)NCc3ccc(Cl)cc3)cc2)cc1 returned H5N1 antiviral 0.3.
CCOCCCNC(=O)C(c1ccc(OC)cc1)N(Cc1ccc2c(c1)OCO2)C(=O)CNC(C)=O (stereo not drawn) was read as H5N1 antiviral inactive.
Cc1cc(=O)n2nc(N3CCCC(C(=O)NCCc4ccccc4)C3)sc2n1 (stereo not drawn) was read as H5N1 antiviral 0.6.
Screening Cc1ccc2oc(=O)c3cnn(CC(=O)N4CCCCC4C)c3c2c1 (stereo not drawn) returned H5N1 antiviral 0.2.
Screening CCOC(=O)C1CCCN(C(=O)c2cc(Nc3ccc(OC)c(OC)c3)nc3ccccc23)C1 (stereo not drawn) returned H5N1 antiviral inactive.
`O=c1c2ccccc2nnn1Cc1ccccn1` gave H5N1 antiviral inactive.
Screening O=C(CCC(=O)N1CCCC1)Nc1nnc(C(F)(F)F)s1 returned H5N1 antiviral inactive.
CCc1ccc(Nc2cc(C(=O)NCCCN3CCOCC3)c3ccccc3n2)cc1 was read as H5N1 antiviral inactive.
CC(=O)N1CCN(CCN=CC2=C(O)CC(c3ccc(Cl)cc3)CC2=O)CC1 (stereo not drawn) was read as H5N1 antiviral 1.2.
`Cc1ccc(C2C3=C(CC(C)(C)CC3=O)Nc3onc(C)c32)cc1` (stereo not drawn) gave H5N1 antiviral inactive.
Screening CSc1nc(-c2ccco2)nn1C(=O)c1cccs1 returned H5N1 antiviral 1.6.

The closing 5 records of the part before open the next one.
Screening O=C(CCC(=O)N1CCCC1)Nc1nnc(C(F)(F)F)s1 returned H5N1 antiviral inactive.
CCc1ccc(Nc2cc(C(=O)NCCCN3CCOCC3)c3ccccc3n2)cc1 was read as H5N1 antiviral inactive.
CC(=O)N1CCN(CCN=CC2=C(O)CC(c3ccc(Cl)cc3)CC2=O)CC1 (stereo not drawn) was read as H5N1 antiviral 1.2.
`Cc1ccc(C2C3=C(CC(C)(C)CC3=O)Nc3onc(C)c32)cc1` (stereo not drawn) gave H5N1 antiviral inactive.
Screening CSc1nc(-c2ccco2)nn1C(=O)c1cccs1 returned H5N1 antiviral 1.6.
`CCc1ccc(CC)c(S(=O)(=O)Nc2ccc(O)c(C(=O)O)c2)c1` gave H5N1 antiviral 0.5.
Screening CCOC(=O)CC(=O)CSc1nc2c(cc1C#N)CCCCC2 returned H5N1 antiviral inactive.
Cc1cc(Cl)ccc1OCC(=O)N/N=C1\CCCc2ccccc21 was read as H5N1 antiviral inactive.
COc1nnc(-c2ccc(N3CCOCC3)c(NC(=O)c3ccco3)c2)c2ccccc12 was read as H5N1 antiviral 3.1.
Screening COC(=O)c1cccc(S(=O)(=O)N2CCC(n3nnc4cc(F)ccc43)CC2)c1 returned H5N1 antiviral 0.5.
Screening CCCCn1c(CN2CCN(C(=O)c3ccco3)CC2)nc2c1c(=O)n(C)c(=O)n2C returned H5N1 antiviral 4.9.
O=c1c2[nH]c3ccc(F)cc3c2ncn1CCCn1ccnc1 was read as H5N1 antiviral inactive.
`COc1cccc(NC(=O)c2cccnc2)c1` gave H5N1 antiviral inactive.
For COc1ccc(Nc2ncnc3c2cnn3Cc2ccc(C)cc2)cc1 the results were H5N1 antiviral inactive.
`O=C(NC(Cc1ccc(F)cc1)C(=O)O)c1ccccc1` (stereo not drawn) gave H5N1 antiviral 1.7.

Five entries from above, arranged by SMILES length, low to high.
`COc1cccc(NC(=O)c2cccnc2)c1` gave H5N1 antiviral inactive.
For COc1ccc(Nc2ncnc3c2cnn3Cc2ccc(C)cc2)cc1 the results were H5N1 antiviral inactive.
Cc1cc(Cl)ccc1OCC(=O)N/N=C1\CCCc2ccccc21 was read as H5N1 antiviral inactive.
`CCc1ccc(CC)c(S(=O)(=O)Nc2ccc(O)c(C(=O)O)c2)c1` gave H5N1 antiviral 0.5.
Screening COC(=O)c1cccc(S(=O)(=O)N2CCC(n3nnc4cc(F)ccc43)CC2)c1 returned H5N1 antiviral 0.5.

Following part
`O=C(Nc1ccncc1)Nc1ccccn1` gave H5N1 antiviral 15.2.
`Cc1c(NS(=O)(=O)c2ccc3c(c2)c(=O)n(C)c(=O)n3C)c(=O)n(-c2ccccc2)n1C` gave H5N1 antiviral 2.3.
`Cc1cc(NC(=O)CSc2nnc(C(C)N(C)C)n2Cc2ccccc2)no1` (stereo not drawn) gave H5N1 antiviral inactive.
`COc1cccc(S(=O)(=O)Nc2ccc(C(=O)N3CCOCC3)cc2)c1` gave H5N1 antiviral 0.9.
`COc1ccc(C2=CSC3=C(C(=O)c4cccc(S(=O)(=O)N(C)C)c4)CCN23)cc1` gave H5N1 antiviral 0.2.
For Cc1nnc(NC(=O)c2cc3n(n2)C(C(F)(F)F)CC(C2CC2)N3)s1 (stereo not drawn) the results were H5N1 antiviral 0.2.
`COC(=O)c1ccc2c(c1)NC(=O)C(N1CCOCC1)S2` (stereo not drawn) gave H5N1 antiviral inactive.
O=C(CSc1nnc(-c2ccco2)o1)N1c2ccccc2CCc2ccccc21 was read as H5N1 antiviral 12.5.
`CCCC(C)C(=O)Nc1nc(C)c(-c2csc(Nc3cc(OC)ccc3OC)n2)s1` (stereo not drawn) gave H5N1 antiviral 0.0.
C=CCOc1ccc(NC(=O)C2CC(=O)N(C(C)C)C2)cc1 (stereo not drawn) was read as H5N1 antiviral inactive.
Screening CC1=C(C(=O)Nc2ccc(F)cc2)C(c2ccncc2)C2=C(CCCC2=O)N1 (stereo not drawn) returned H5N1 antiviral inactive.
`O=C1NCC(O)=C1C=NC12CC3CC(CC(C3)C1)C2` gave H5N1 antiviral 2.8.
`Clc1ncccc1-c1nc2ccccc2n1Cc1ccccc1` gave H5N1 antiviral inactive.
`CCOC(=O)CN1C(=O)C(O)=C(C(C)=O)C1c1ccc([N+](=O)[O-])cc1` (stereo not drawn) gave H5N1 antiviral inactive.
`Cc1cccc(NC(=O)C2c3ccccc3C(=O)N3CCc4ccccc4C23)n1` (stereo not drawn) gave H5N1 antiviral inactive.
`Cc1cc(=O)c2ccccc2s1` gave H5N1 antiviral inactive.
COC(=O)C1=C(C)NC(=O)/C1=C\c1cc(C)n(-c2cccc(C)c2)c1C was read as H5N1 antiviral inactive.
Screening O=C(CSc1ncc(-c2ccc(F)cc2)[nH]1)NCc1ccco1 returned H5N1 antiviral 1.4.
CCOC(=O)N1CCC(N2CCN(S(=O)(=O)c3ccc(Cl)cc3)CC2)CC1 was read as H5N1 antiviral 4.3.
`CCc1nnc(NC(=O)C2CCCN2S(=O)(=O)c2ccc(C)cc2)s1` (stereo not drawn) gave H5N1 antiviral 1.0.
Nn1c(Cc2ccccc2F)nnc1SCn1nnc2ccccc2c1=O was read as H5N1 antiviral 0.6.
For Cc1ccc(OCc2nnc(SCC(=O)Nc3cc(C)on3)n2C)cc1 the results were H5N1 antiviral inactive.
Cn1c(=O)c2c(nc(Oc3ccccc3)n2C)n(C)c1=O was read as H5N1 antiviral 1.0.
Screening O=[N+]([O-])c1cccnc1N1CCC(c2cc(-c3ccc(Cl)cc3)n[nH]2)CC1 returned H5N1 antiviral inactive.
`Cc1cc(C)nc(SCCN2CCOCC2)n1` gave H5N1 antiviral inactive.
For Cc1csc(NC(=O)CSc2nnc(C)n2Cc2ccco2)n1 the results were H5N1 antiviral 4.3.
For COc1ccc(C2C(C(=O)N3CCCCC3)CCC(=O)N2c2cc(OC)c(OC)c(OC)c2)cc1 (stereo not drawn) the results were H5N1 antiviral 0.5.
Screening CN(C)c1ccc(-c2noc(C3CCN(S(=O)(=O)c4cccc(Cl)c4)CC3)n2)cc1 returned H5N1 antiviral 0.1.
Cc1nn(CC(=O)N2CCN(Cc3ccccc3)CC2)c(=O)c2ccccc12 was read as H5N1 antiviral inactive.
`COc1cc2c(cc1OC)CN(C(=S)Nc1ccccc1)CC2` gave H5N1 antiviral 0.5.
Screening CCOC(=O)CC(=O)CSc1nc2c(cc1C#N)CCCCCC2 returned H5N1 antiviral inactive.
Screening Cc1cc2n(n1)C(c1ccco1)Nc1ccccc1-2 (stereo not drawn) returned H5N1 antiviral 2.0.
For CC(C)(C)NCC(O)COCc1ccc(Cl)cc1 (stereo not drawn) the results were H5N1 antiviral 1.4.
For O=C(CCn1nc(-c2ccc(Cl)cc2)c2ccccc2c1=O)NCC1CCCO1 (stereo not drawn) the results were H5N1 antiviral 1.8.
`Cc1cc(C(=O)CSc2nnc(NCc3ccccc3)s2)c(C)n1C` gave H5N1 antiviral 0.1.
For Cc1ccc(S(=O)(=O)NC(C)C(=O)Nc2ccccc2C(=O)N2CCCC2)cc1 (stereo not drawn) the results were H5N1 antiviral inactive.
CCN(CC)S(=O)(=O)c1cccc(NC(=O)Nc2cccc(C(F)(F)F)c2)c1 was read as H5N1 antiviral 3.0.
For COc1ccc(Cn2c(C3CC3)nc3ccc(NC(C)=O)cc3c2=O)cc1 the results were H5N1 antiviral inactive.
Screening CC(=O)Nc1nc(C(=O)Nc2c(C)n[nH]c2C)cs1 returned H5N1 antiviral inactive.
For COc1ccccc1NC(=O)CSC(N)=O the results were H5N1 antiviral inactive.
CC1Cc2nc(SCC(=O)c3ccccc3)n(Cc3ccccc3)c(=O)c2S1 (stereo not drawn) was read as H5N1 antiviral inactive.
CC(=O)c1c(N2CCN(Cc3ccccc3)CC2)[nH]c(-c2ccccc2)nc1=S was read as H5N1 antiviral inactive.
For Cc1onc(-c2c(Cl)cccc2Cl)c1C(=O)N/N=C(\N)COc1ccc(Cl)cc1 the results were H5N1 antiviral inactive.
O=C1C2(CCC13COC(c1ccc(O)cc1)OC3)COC(c1ccc(O)cc1)OC2 (stereo not drawn) was read as H5N1 antiviral inactive.
For O=C(c1cccc(C(F)(F)F)c1)N1CCOC12CCN(c1ncc(C(F)(F)F)cc1Cl)CC2 the results were H5N1 antiviral 1.9.
O=C(CCCN1C(=O)CCC1=O)Nc1ccc(Cl)c(C(F)(F)F)c1 was read as H5N1 antiviral 0.7.
CC1CCN(S(=O)(=O)c2ccc3[nH]c(=O)cc(C(=O)O)c3c2)CC1 was read as H5N1 antiviral 0.2.
For CCC(C)(C(=O)NC1CCCCC1)N(Cc1ccco1)C(=O)c1ccc2c(c1)OCO2 (stereo not drawn) the results were H5N1 antiviral inactive.
Screening CCc1ccc(N/C(SC)=C(/C#N)C(N)=O)cc1 returned H5N1 antiviral inactive.
`Nc1c(C(=O)NC2CCCCC2)nsc1C(=O)OCC(=O)NC1CCCCC1` gave H5N1 antiviral inactive.
`COc1ccc(-c2noc(COc3ccc4c(c3)OCO4)n2)cc1OC` gave H5N1 antiviral inactive.
CCOC(=O)COc1ccc(S(=O)(=O)Nc2ccc3c(c2)OCO3)cc1 was read as H5N1 antiviral inactive.
O=C(CN1CCN(c2ncc(C(F)(F)F)cc2Cl)CC1)Nc1ccc2c(c1)OCO2 was read as H5N1 antiviral 0.3.
`Cc1cc(=O)[nH]c(SCC(=O)Nc2ccc(S(=O)(=O)N3CCCCC3)cc2)n1` gave H5N1 antiviral 1.0.
O=C(NCCCN1CCOCC1)C1CCC(=O)N1C1CCCCC1 (stereo not drawn) was read as H5N1 antiviral 0.4.
C=CCNC(=O)c1ccc(Cl)cc1Cl was read as H5N1 antiviral 0.4.
For CN(CCCC(=O)Nc1nccs1)S(=O)(=O)c1ccc(Cl)cc1 the results were H5N1 antiviral 0.2.
`CC(C)CC12CN3CCN(CC(C3)/C1=N/O)C2` gave H5N1 antiviral 0.5.
CCC(C)NC(=O)CSc1nc2ccccc2c(=O)n1CCCC(=O)NCC1CCCO1 (stereo not drawn) was read as H5N1 antiviral 0.5.
Screening Cc1ccccc1NC(=O)C1(NC(=O)c2cccc(N3C(=O)CSC3c3ccccc3)c2)CCCCC1 (stereo not drawn) returned H5N1 antiviral inactive.
`CCOc1ccc(NS(=O)(=O)c2ccc(NS(=O)(=O)c3ccccc3)cc2)cc1` gave H5N1 antiviral inactive.
`CCn1c(-c2cc(Cl)ccc2OC)n[nH]c1=S` gave H5N1 antiviral inactive.
CC(CCc1ccccc1)NC(=O)C(=O)NCCO (stereo not drawn) was read as H5N1 antiviral inactive.
CN1CCN(C(=O)c2ccccc2-c2ccccc2C(=O)O)CC1 was read as H5N1 antiviral inactive.
Clc1ccccc1Nc1ncnc(-n2cccc2)n1 was read as H5N1 antiviral 1.2.
Screening Nc1nc(CSCCO)nc(Nc2ccc(F)cc2)n1 returned H5N1 antiviral 0.1.
`COc1ccc(NC(=O)/C(C#N)=C/c2ccc(Br)o2)cc1` gave H5N1 antiviral inactive.
COC(=O)c1c(NC(=O)CSc2nc(-c3ccco3)cc(C(F)(F)F)n2)sc2c1CCCC2 was read as H5N1 antiviral inactive.
CC(C)CCn1c(CN2CCN(C(=O)c3ccco3)CC2)nc2c1c(=O)n(C)c(=O)n2C was read as H5N1 antiviral 8.5.
`COCc1nnc(SCC(=O)NC(C)c2ccccc2)n1-c1ccccc1` (stereo not drawn) gave H5N1 antiviral 0.3.

Screens: PubChem BioAssay, SRMLSC
